Compound activity deposited in PubChem BioAssay by several laboratories.
GALR2 ag: GALR2 receptor agonists, primary screen, cell-based; activation, %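 (tested at 5 µM)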; 0.48% of 140,000 active; GALR2-expressing cells, agonist activation read-out; AID 803, 2007; Galanin receptor type 2 (Homo sapiens), O43603;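 active means above mean plus 3 SD of all compounds, about 5% in these data, not always enough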;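 further: 0% = vehicle buffer wells and 100% = reference agonist at full effect; tested in CHO reporter cells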
Target sequence (O43603 whole entry, looked up): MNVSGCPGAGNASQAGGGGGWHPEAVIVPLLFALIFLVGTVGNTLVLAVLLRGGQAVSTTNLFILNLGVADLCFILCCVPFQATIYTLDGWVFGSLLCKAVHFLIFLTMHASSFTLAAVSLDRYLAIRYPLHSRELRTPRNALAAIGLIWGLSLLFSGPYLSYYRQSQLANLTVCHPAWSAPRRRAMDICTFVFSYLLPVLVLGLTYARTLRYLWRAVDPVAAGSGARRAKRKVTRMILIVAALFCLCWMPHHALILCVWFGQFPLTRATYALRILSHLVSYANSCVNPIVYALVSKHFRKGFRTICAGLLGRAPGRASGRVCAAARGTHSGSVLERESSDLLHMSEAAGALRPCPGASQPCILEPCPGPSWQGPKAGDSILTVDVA
INS promoter inh: inhibitors of insulin promoter-driven GFP, primary screen, imaging, TRM-6 cells (human fetal islet line), eGFP reporter, cell count; reporter expression induced with tamoxifen; inhibition, % at 2 µM; 0.9% of 130,000 active; AID 1273, 2008;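 active means inhibition above the mean plus 3 SD, with well images judged a real hit on visual review, cut at about 60% in these data, passing the limit was not always enough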
RGS16-Gao: modulators of RGS16 binding to Galphao, primary screen, biochemical, human proteins, multiplexed bead flow cytometry | Regulator of G-protein signaling 16 (Homo sapiens) + Guanine nucleotide-binding protein … | bead-based flow cytometry RGS16-Galphao binding, fluorescence; actives lie on both sides | binding response (% of control), % at 10 µM | 0.38% of 220,000 active;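 active means below 25% or above 175%, edge rows of some plates excepted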;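 further: Galphao activated by GDP with aluminum fluoride before binding; 100% = wells without compound and 0% = beads without RGS; some results beyond the cut were filed as inactive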
Target sequence (O15492 whole entry, looked up): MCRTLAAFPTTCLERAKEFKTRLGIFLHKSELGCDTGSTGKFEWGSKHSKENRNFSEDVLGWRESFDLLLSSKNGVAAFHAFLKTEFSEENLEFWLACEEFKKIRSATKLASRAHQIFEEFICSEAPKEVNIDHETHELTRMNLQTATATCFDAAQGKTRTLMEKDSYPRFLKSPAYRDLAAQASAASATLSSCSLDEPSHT
Target sequence (P09471 whole entry, looked up): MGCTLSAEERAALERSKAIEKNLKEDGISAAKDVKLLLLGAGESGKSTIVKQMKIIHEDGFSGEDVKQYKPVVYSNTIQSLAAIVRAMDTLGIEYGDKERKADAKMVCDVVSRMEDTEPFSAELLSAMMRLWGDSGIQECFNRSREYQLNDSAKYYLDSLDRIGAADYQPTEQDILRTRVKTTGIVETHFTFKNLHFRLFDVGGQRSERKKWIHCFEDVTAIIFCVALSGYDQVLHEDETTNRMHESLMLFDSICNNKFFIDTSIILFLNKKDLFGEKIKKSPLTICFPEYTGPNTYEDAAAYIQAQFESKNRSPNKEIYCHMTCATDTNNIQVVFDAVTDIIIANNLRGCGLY
PKD1 kinase inh: inhibitors of human PKD1 kinase, biochemical, fluorescence polarization. Serine/threonine-protein kinase D1 (Homo sapiens), Q15139. PKD1 kinase fluorescence polarization assay. inhibition, %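 (about 10 µM by stock and volumes)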. 0.056% of 200,000 active;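 active means inhibition of 50% or more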;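 further: controls were vehicle for no effect and a reference inhibitor for full effect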
HSV augment: enhancers of HSV replication in host cells, fold increase, host cell viability. HSV replication augmentation in cells. maximum fold increase. 0.005% of 220,000 active;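 active means peak rise of 1.5-fold or more in the series; tested in PC3 cells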;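 further: first round at 10 µM; read as green reporter fluorescence; hits show the peak of a series up to 25 µM; 1 = signal of infected wells without compound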
INS promoter inh cell count: recorded beside INS promoter inh, whose call it bears; normalized cell count, %; measured here: cell count, toxicity; reference of the scale not given here;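 cells exposed to compound for 48 h; stained nuclei by imaging scaled within each plate; lower means fewer cells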
HSV augment primary fold: recorded beside HSV augment, whose call it bears; fold increase; compound at 10 µM; measured here: primary screen fold increase 10 uM; tested in PC3 cells;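 GFP signal in the first replicate; 1 = infected wells without compound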
* = called active by the depositor; i = inactive; . = not tested or not shown; [ ] = remark or other dose. Outcome played no part in choosing rows; any-hit rate near 1.3%.

SMILES	GALR2 ag	INS promoter inh	INS promoter inh cell count	RGS16-Gao	PKD1 kinase inh	HSV augment	HSV augment primary fold
O=C(CCS(=O)(=O)Cc1ccccc1)NCCc1ccccc1	.	.	.	97	0	i	0.99
CC(=O)c1cccc(CN2CCN(CCC(C)C)C(CCO)C2)c1 (stereo unspecified)	.	.	.	108	.	i	0.82
CCOC(=O)/C(C#N)=N/Nc1ccccc1C#N	.	.	.	105	.	i	0.96
COc1ccc(NC(=O)CSc2nnc(-c3ccncc3)n2CC2CCCO2)c(OC)c1 (stereo unspecified)	-1.9	44	130	100	-3	i	0.94
COc1ccc(OC)c(NC(=O)c2ccc(CN3CCOCC3)cc2)c1	-0.7	-39	94	98	-1	i	0.93
COCCOc1ccc(C(F)(F)F)cc1NC(=O)c1ccccc1	1.0	.	.	97	-3	i	0.92
c1ccc2c3nnc4n(c-3nc2c1)CCCS4	-1.1	24	88	102	0	i	0.93
CN(N)c1nc(C(F)(F)F)nc2ccccc12	.	-30	100	102	-2	i	0.89
CCc1ccccc1NC(=O)CN(C)C(=O)CSc1nn(-c2ccccc2)c(=S)s1	0.5	.	.	101	-3	i	0.95
Cc1cc(C)n2nc(C(=O)OCC(=O)Nc3ccc4c(c3)OCO4)nc2n1	-2.3	.	.	123	-18	i	0.93
COc1cccc2c(=O)n(CC(=O)Nc3ccccc3F)ccc12	-3.3	.	.	105	-15	i	0.95
O=C(Nc1nccs1)C1CCCN1S(=O)(=O)c1ccc(F)cc1 (stereo unspecified)	-1.9	5	94	115	-2	i	0.89
CCNc1nc(NCC)nc(Oc2ccc(C(=O)OC)cc2)n1	.	.	.	91	.	i	0.97
COc1ccc(OCCCC(=O)Nc2cc([N+](=O)[O-])ccc2C)cc1	-1.0	.	.	95	-17	i	1.1
CC(C)c1nnc(NC(=O)Cc2ccc(Br)cc2)s1	0.4	36	169	104	-2	i	0.98
O=C1/C(=C/c2cccnc2)SC(=S)N1c1ccc(F)cc1	-3.4	8	100	178*[activator]	-9	i	1.1
CC1(C)CC(CCC(=O)NC(=S)Nc2ccccc2Cl)C(=O)O1 (stereo unspecified)	.	.	.	128	-1	i	0.94
COc1ccc(OC)c(/C=N\NC(=O)CSc2nnc(CCCc3ccc(OC)c(C)c3)o2)c1	-1.4	33	76	99	11	i	0.84
CN(CC(=O)Nc1ccc(F)cc1[N+](=O)[O-])Cc1ccccc1	.	57	102	91	-10	i	0.92
CC(=O)O[C@@H]1[C@H](OC(=O)CC(C)C)c2c(ccc3ccc(=O)oc23)OC1(C)C	-1.3	-5	97	102	-2	i	0.82
O=C(Cc1cccs1)N1CCN=C1SCc1cccc(F)c1	.	.	.	101	.	i	0.92
O=C(CCC(=O)c1cccs1)OCC(=O)c1ccc(Cl)s1	-2.0	17	78	113	-6	i	0.93
N/C(=N\c1nc2ccccc2o1)NC(=O)c1cccc(Cl)c1	.	.	.	105	.	i	1.1
COc1cc2c(cc1OC)C1(Nc3c-2c(C)nn3-c2ccccc2)C(=O)Nc2ccccc21 (stereo unspecified)	-0.9	-17	112	97	3	.	.
O=C(O)CCSCC(=O)Nc1c(C(=O)C2CC2)oc2ccccc12	-0.7	12	102	105	-7	i	1
O=C(NC1CCCc2ccccc21)C1CCN(S(=O)(=O)c2cnc[nH]2)CC1 (stereo unspecified)	-0.9	-156	125	102	-5	i	1
COC(=O)Cn1c(C)c(C#N)c2ccccc21	-0.9	46	112	101	-2	i	1.1
COc1ccccc1N(CC(=O)NCc1ccccn1)S(C)(=O)=O	-1.2	-9	90	105	-1	i	1.2
COc1ccc(NC(=O)c2cccc(Oc3ccc([N+](=O)[O-])cc3Cl)c2)cc1	-0.5	22	89	100	2	i	0.63
CCCOc1ccc2oc(=O)c3c(c2c1)CCCN3C(=O)CN(C)Cc1ccccc1	-0.7	-44	156	106	-5	i	0.87
CN1CCN(NC(=O)c2ccc(COc3ccccc3Br)o2)CC1	.	.	.	91	1	i	0.94
Cc1nnc(SCC(=O)NC(C)c2ccccc2)[nH]c1=O (stereo unspecified)	-0.1	17	84	98	-2	i	0.9
CCCc1nn(C)c(C(=O)Nc2ccc3ccccc3c2)c1Cl	-0.3	-17	85	101	-6	i	0.94
COc1ccc(CCNC(=O)Cc2nn(C)c(=O)c3ccccc23)cc1OC	-2.5	56	157	99	-1	i	0.86
Cc1ccc2nc(NC(=O)c3ccc(NS(=O)(=O)c4cccs4)cc3)sc2c1	-1.3	17	106	104	-19	i	0.95
COc1ccc(COCCN2CCN(S(=O)(=O)c3ccccc3)CCC2=O)cc1	.	.	.	78	.	i	0.9

Shown in markdown: 18 of the compounds above.
| structure | GALR2 ag | INS promoter inh | INS promoter inh cell count | RGS16-Gao | PKD1 kinase inh | HSV augment | HSV augment primary fold |
| --- | --- | --- | --- | --- | --- | --- | --- |
| O=C1/C(=C/c2cccnc2)SC(=S)N1c1ccc(F)cc1 | -3.4 | 8 | 100 | 178*[activator] | -9 | i | 1.1 |
| CC1(C)CC(CCC(=O)NC(=S)Nc2ccccc2Cl)C(=O)O1 (stereo unspecified) | . | . | . | 128 | -1 | i | 0.94 |
| COc1ccc(OC)c(/C=N\NC(=O)CSc2nnc(CCCc3ccc(OC)c(C)c3)o2)c1 | -1.4 | 33 | 76 | 99 | 11 | i | 0.84 |
| CN(CC(=O)Nc1ccc(F)cc1[N+](=O)[O-])Cc1ccccc1 | . | 57 | 102 | 91 | -10 | i | 0.92 |
| CC(=O)O[C@@H]1[C@H](OC(=O)CC(C)C)c2c(ccc3ccc(=O)oc23)OC1(C)C | -1.3 | -5 | 97 | 102 | -2 | i | 0.82 |
| O=C(Cc1cccs1)N1CCN=C1SCc1cccc(F)c1 | . | . | . | 101 | . | i | 0.92 |
| O=C(CCC(=O)c1cccs1)OCC(=O)c1ccc(Cl)s1 | -2.0 | 17 | 78 | 113 | -6 | i | 0.93 |
| N/C(=N\c1nc2ccccc2o1)NC(=O)c1cccc(Cl)c1 | . | . | . | 105 | . | i | 1.1 |
| COc1cc2c(cc1OC)C1(Nc3c-2c(C)nn3-c2ccccc2)C(=O)Nc2ccccc21 (stereo unspecified) | -0.9 | -17 | 112 | 97 | 3 | . | . |
| O=C(O)CCSCC(=O)Nc1c(C(=O)C2CC2)oc2ccccc12 | -0.7 | 12 | 102 | 105 | -7 | i | 1 |
| O=C(NC1CCCc2ccccc21)C1CCN(S(=O)(=O)c2cnc[nH]2)CC1 (stereo unspecified) | -0.9 | -156 | 125 | 102 | -5 | i | 1 |
| COC(=O)Cn1c(C)c(C#N)c2ccccc21 | -0.9 | 46 | 112 | 101 | -2 | i | 1.1 |
| COc1ccccc1N(CC(=O)NCc1ccccn1)S(C)(=O)=O | -1.2 | -9 | 90 | 105 | -1 | i | 1.2 |
| COc1ccc(NC(=O)c2cccc(Oc3ccc([N+](=O)[O-])cc3Cl)c2)cc1 | -0.5 | 22 | 89 | 100 | 2 | i | 0.63 |
| CCCOc1ccc2oc(=O)c3c(c2c1)CCCN3C(=O)CN(C)Cc1ccccc1 | -0.7 | -44 | 156 | 106 | -5 | i | 0.87 |
| CN1CCN(NC(=O)c2ccc(COc3ccccc3Br)o2)CC1 | . | . | . | 91 | 1 | i | 0.94 |
| Cc1nnc(SCC(=O)NC(C)c2ccccc2)[nH]c1=O (stereo unspecified) | -0.1 | 17 | 84 | 98 | -2 | i | 0.9 |
| CCCc1nn(C)c(C(=O)Nc2ccc3ccccc3c2)c1Cl | -0.3 | -17 | 85 | 101 | -6 | i | 0.94 |

(further entries)
SMILES	GALR2 ag	INS promoter inh	INS promoter inh cell count	RGS16-Gao	PKD1 kinase inh	HSV augment	HSV augment primary fold
CC1=C(C#N)C(=O)NC(=O)/C1=C\c1ccc(-c2cc(C)c(C)cc2[N+](=O)[O-])o1	.	.	.	99	1	i	1.1
CCCc1cc(=O)[nH]c(SCc2cccc(C)c2)n1	-3.0	15	55	102	1	i	1
COc1ccc(-c2[nH]ncc2-c2ccc3c(c2)OCCO3)c(O)c1	-1.1	47	112	113	12	i	0.63
O=C(Nc1cscc1S(=O)(=O)c1ccccc1)c1ccccc1Cl	.	.	.	96	.	i	1
CCOC(=O)C1=C(O)/C(=C\c2sccc2C)N=C1C	-0.6	0	85	107	0	i	0.95
CC(=O)Nc1ccc(N2C(C(C)=O)=NN(c3ccc(Cl)cc3)C2c2sccc2C)cc1 (stereo unspecified)	-0.6	47	40	102	-7	i	0.9
O=C1OC2(CCCCC2)OC(=O)C1=CNc1nc2ccccc2s1	-1.9	-25	30	97	7	i	1
Cc1ccc(O)c(-c2cc3ccccc3[nH]2)c1	-0.4	-206	86	97	-8	i	0.99
CCCCc1c(O)c2ccccc2[nH]c1=O	-0.3	38	94	103	1	i	0.91
CC(=O)Nc1ccc(NS(=O)(=O)c2cc(C)sc2C)cc1	-2.2	.	.	115	-6	i	1
Cc1cccc(-c2nc3ccccc3c3nncn23)c1	-2.5	-26	97	79	-5	i	0.88
O=C(CSc1nnnn1Cc1ccccc1)N1CCN(c2ccccc2)CC1	-2.6	19	118	87	-16	.	.
Cn1c(/C(C#N)=N/O)nc2ccccc21	-3.3	-390	58	103	4	i	1.1
COc1ccc(S(=O)(=O)n2oc(=O)cc2-c2ccccc2)cc1	-1.3	-34	102	107	-5	i	1.1
CCOC(=O)CNC(=O)Cn1cnc2sc(C)c(S(=O)(=O)N3CCC(C)CC3)c2c1=O	1.2	-15	84	101	11	i	1
C=CCc1cc(C=O)cc(OCC)c1OCc1ccc(Cl)cc1	1.3	-62	133	107	3	i	1
Cc1ccn2c(NC(=O)c3cccs3)c(-c3ccccc3)nc2c1	-0.7	.	.	103	-7	i	0.97
Cc1cc(C)cc(NC(=O)Cn2ncn3c(cc4ccccc43)c2=O)c1	-0.4	.	.	107	4	i	0.9
COc1ccc(Nc2cc(C)nc3ncnn23)c(OC)c1	-1.4	.	.	99	4	i	0.88
Nc1cc(=O)nc(SCC(=O)Nc2cccc3ccccc23)n1CCc1ccccc1	1.1	23	49	97	3	i	1
Cc1ccc(NC(=O)c2noc3c2CCc2ccccc2-3)cc1	0.9	8	92	104	-20	i	1.1
CC(C)(CO)NC12CC3CC(CC(C3)C1)C2	.	0	82	92	-6	i	0.98
CNC(=O)c1cccc2nc3ccccc3nc12	.	.	.	98	.	i	1
Cc1ccc(C(=O)OCCc2sc[n+](Cc3ccccc3)c2C)cc1	-0.1	.	.	102	-2	i	0.98
CN(Cc1cnccn1)C(=O)CC1C(=O)NCCN1CC(c1ccccc1)c1ccccc1 (stereo unspecified)	.	.	.	112	0	i	0.99
C#CCNC(=O)C1=C[C@H](C2CCCCC2)C[C@H](OCCCCO)O1	.	.	.	95	-4	i	1.1
Cc1onc(-c2ccccc2Cl)c1C(=O)OCC(=O)c1ccccc1	-0.3	-46	80	103	-6	i	0.9
O=C(NC1(C(F)(F)F)N=C2SCCN2C1=O)c1cccnc1 (stereo unspecified)	-1.2	13	125	86	0	i	1
COC(=O)c1ccc(Cl)c(NC(=O)CN2CCOCC2)c1	-2.3	71	146	103	2	i	0.98
O=C(CSc1nnc(CNC(=O)c2cccs2)o1)c1ccc(Cl)cc1	-0.5	0	103	94	-1	i	0.89
CCOC(=O)Cc1csc(NC(=O)NC2(C(F)(F)F)Oc3ccccc3O2)n1	-1.3	8	75	106	3	i	0.67
CN1CC(=O)NC1=NC(=O)C12CC3CC(CC(C3)C1)C2	-2.0	-20	69	102	-10	i	1
CC1(C)N([O-])C2=C(c3ccccc3C2=O)[N+](=O)C1(C)C	-0.6	-17	120	107	-3	i	1.1
COc1ccc(-c2csc(NC(=O)COC(=O)Cc3ccc(Cl)cc3Cl)n2)cc1	-0.8	.	.	101	0	i	0.93
CCOC(=O)N1CCC(N2CCN(Cc3ccc(C)o3)C(CCO)C2)CC1 (stereo unspecified)	.	28	101	102	9	i	1.1
Cc1ccnc(NC(=O)CCCOc2ccccc2)c1	.	.	.	191	1	i	0.98
